Source: PubChem
Vaccinia mCherry: vaccinia inhibition (mCherry reporter). Vaccinia virus mCherry reporter infection, fluorescence; about a quarter of the inactives have no number. AID 720579. Potency, µM (series often up to 36.5 µM), for the others: at the top dose activity change, negative = inhibition, actives largely listed as inhibitors. 310,000 compounds, 0.63% hits; active = well fitted inhibition curve with a large enough effect; inconclusive = small, poorly fitted or top-dose-only effect; inactive = no such curve, though single readings can be large or run the other way; tested in A549 cells; further: nearly all actives have a fitted effect of over 35% in size; inactives centre near -10
Vaccinia Venus: vaccinia inhibition (Venus reporter); Vaccinia virus Venus reporter expression, fluorescence; Potency, µM (highest dose often 36.5 µM), without a hit: at the highest dose activity change, negative = inhibition, most hits filed as inhibitors; 330,000 compounds, 0.46% hits; AID 720580; active means well fitted inhibition curve with a large enough effect; inconclusive means small, poorly fitted or top-dose-only effect; inactive means no such curve, though single readings can be large or run the other way; tested in A549 cells; further: nearly all actives have a fitted effect of over 30% in size; inactives centre near -10
* hit, by the source's call; i = inactive; ? = inconclusive; . = not tested or not shown; & = joins results of further samples; [ ] = remark or other dose. On the % scale 0 is the no-effect control and ±100 the full control effect; potency means the concentration at half of the fitted maximal effect.

SMILES	Vaccinia mCherry	Vaccinia Venus
NC(=O)Cc1nc(-c2ccc([N+](=O)[O-])cc2)cs1	-14%	-9%
Cc1ccccc1C(=O)NC1(C(F)(F)F)C(=O)Nc2c1c(=O)[nH]c(=O)n2-c1ccc(F)cc1 (configuration not stated)	-8%	1%
COc1cc(C(=O)N2C[C@H]3CON(C)[C@H]3C[C@H]2c2ccc(N3CCCCC3)cc2)cc(OC)c1OC	12%	-2%
CCO[C@@H]1OC(C(=O)NCc2ccccc2)=C[C@H](c2csc3ccccc23)[C@H]1CCCO	i	?
COc1ccc(Br)c(Cn2c(C)c(C(=O)NCc3ccc(F)cc3)sc2=O)c1	i	-8%
CCc1ccc(N(CC(=O)O)S(=O)(=O)c2c(C)noc2C)cc1	5%	-5%
O=C1NC[C@H](Cc2ccc(O)cc2)N(CCc2cccc3ccccc23)C1=O	i	-5%
COc1ccccc1C(=O)NC(=O)COC(=O)c1cccc(NC(C)=O)c1	-4%	-5%
O=S(=O)(c1ccc(Cl)cc1)N1CCN(Cc2cccnc2)CC1	-19%	-4%
CC(=O)C1=C(C)NC(=O)NC1c1ccc2c(c1)OCO2 (configuration not stated)	-9%	-1%
COc1ccccc1NC(=O)c1cc(=O)c2ccc(C)c(C)c2o1	-3%	3%
Cc1ccc(Cl)cc1N1CCN(CCCNC(=O)Cn2ncc3c([nH]c4ccccc43)c2=O)CC1	-13%	-20%
CCc1ccccc1NC(=O)Nc1nnc(N(C)Cc2ccccc2)s1	-20%	-28%
Cc1nc2c(-c3ccc(F)cc3)c(C)nn2c(C)c1CCC(=O)N1CCN(c2ccc(F)cc2)CC1	-18%&-10%	-8%&-30%
OCc1cc(C(O)CNCCCCCCOCCCCc2ccccc2)ccc1O (configuration not stated)	?	-20%
Cn1c([N+](=O)[O-])cnc1COC(N)=O	-18%	-18%&-7%
CN(C)S(=O)(=O)c1ccc(Cl)c(NC(=O)COC(=O)/C=C/c2ccco2)c1	i	-7%
CCCCn1c(N)c(N(CCOC)C(=O)COC(=O)c2cc(CC)c(C)s2)c(=O)[nH]c1=O	-16%	-8%
O=S(=O)(c1ccc(Br)cc1)N1CCC2(CC1)OCCO2	-9%	-5%
C[C@H](NC(=O)c1nc[nH]c1C(=O)N1CCN(C(=O)OC(C)(C)C)CC1)c1ccccc1	i	-5%
CCOCCCn1c(=S)[nH]c2cc3c(cc2c1=O)OCO3	-9%	-3%
COCCN(C(=O)C1=COCCO1)c1c(N)n(Cc2ccccc2)c(=O)[nH]c1=O	-16%	-18%
C=CCn1c(C#N)c(N)sc1=N	-3%	-12%
Cn1cc(C(=O)NCc2ccccc2F)cn1	-14%	-7%
CCc1nccn1S(=O)(=O)c1ccc(Br)cc1Br	.	-7%

Another view of part of the listing above.
Order of results – Vaccinia mCherry, Vaccinia Venus
Cc1ccccc1C(=O)NC1(C(F)(F)F)C(=O)Nc2c1c(=O)[nH]c(=O)n2-c1ccc(F)cc1 (configuration not stated)
  -8%, 1%
COc1cc(C(=O)N2C[C@H]3CON(C)[C@H]3C[C@H]2c2ccc(N3CCCCC3)cc2)cc(OC)c1OC
  12%, -2%
CCO[C@@H]1OC(C(=O)NCc2ccccc2)=C[C@H](c2csc3ccccc23)[C@H]1CCCO
  i, ?
COc1ccc(Br)c(Cn2c(C)c(C(=O)NCc3ccc(F)cc3)sc2=O)c1
  i, -8%

Returning to the listing, starting 2 compounds before the break.
SMILES	Vaccinia mCherry	Vaccinia Venus
Cn1cc(C(=O)NCc2ccccc2F)cn1	-14%	-7%
CCc1nccn1S(=O)(=O)c1ccc(Br)cc1Br	.	-7%
COC(=O)CCCNC(=O)CN1CC(c2ccccc2)CC1=O (configuration not stated)	.	-2%
Cc1cc(Cl)ccc1Nc1ncnc2onc(C)c12	-13%	-9%
Cc1ccc2[nH]c(C(=O)O)c(NC(=O)CN3CCN(c4cccc(C)c4C)CC3)c2c1	.	-5%
CCOC(=O)c1cc2c(nc1N)CC(C)(CC)OC2 (configuration not stated)	i	-18%
COC(=O)C[C@H]1C=C[C@H](NC(=O)c2ccccn2)[C@@H](CO)O1	-3%	-11%
CCCOc1ccc(NC(=O)Cc2ccc(S(=O)(=O)N3CCOCC3)s2)cc1OCCC	-18%	?
Cc1ccc(-c2nn3c(-c4ccccc4)nnc3o2)cc1	14%	-10%
CCOc1ccccc1C(=O)NC1(C(F)(F)F)NC(=O)N(CCc2ccc(OC)c(OC)c2)C1=O (configuration not stated)	-11%	-7%
CCN(CC(=O)NCc1ccc(Cl)cc1)C(=O)c1cc2ccccc2o1	-25%	-15%
OCc1ccc(-c2ccc3nccn3c2)cc1	11%	3%
COc1ccc(C2C(C(=O)NCC3CCCO3)CCC(=O)N2c2ccc3c(c2)OCO3)cc1 (configuration not stated)	-11%	-11%
CCOc1ccc(Cl)cc1S(=O)(=O)N1CCC(C(=O)NCC2CCCO2)CC1 (configuration not stated)	i	-12%
Cc1ccc(-c2ocnc2C(=O)Nc2nc(C)cs2)cc1	-19%	-6%
c1ccc2nc(OCCN3CC3)ccc2c1	?	?
CC1CCN(CCNC(=O)C2CCCN(c3ncnc4c3nc3n4CCCCC3)C2)CC1 (configuration not stated)	-9%	-6%
FC(F)(F)c1cccc(CNC2CCN(Cc3ccccc3)CC2)c1	-9%	-22%
CC(CN1CCCCC1)OC(=O)c1ccccc1Cl (configuration not stated)	.	-20%
O=C(C1=C[C@@H](c2ccc(Br)cc2)C[C@@H](OCCCCO)O1)N1CCOCC1	-15%	-5%
O=C(c1cc(COc2ccc(F)cc2Cl)on1)N1CCN(C2CCCCC2)C(=O)C1	-5%	-22%
Cn1nnc2c(NCc3ccccc3Cl)ncnc21	i	-8%
COc1ccc(CCN2C(=O)c3[nH]nc(-c4ccccc4O)c3C2c2cccc(OC)c2)cc1 (configuration not stated)	?	?
Cc1ccc(C)c(C(=O)OCC(=O)NC(=O)NCc2ccccc2)c1	i	-12%
CCN(C[C@H]1N[C@@](CC)(C(=O)OC)[C@H]2C(=O)N(Cc3ccccc3)C(=O)[C@@H]12)C(=O)c1ccc(F)cc1	-12%	1%
COc1cc(/C=C(\C#N)C(=O)NCC2CCCO2)ccc1OCC(=O)O (configuration not stated)	-21%	-12%
CC(=O)c1cccc(NC(=O)NCCc2c[nH]c3ccccc23)c1	i[7.34 µM]	3%[7.34 µM]

Whole records as entered above. Values in the order: Vaccinia mCherry | Vaccinia Venus
CC(=O)c1cccc(NC(=O)NCCc2c[nH]c3ccccc23)c1 in the list: i[7.34 µM] | 3%[7.34 µM]
Cc1nc2c(-c3ccc(F)cc3)c(C)nn2c(C)c1CCC(=O)N1CCN(c2ccc(F)cc2)CC1 in the list: -18%&-10% | -8%&-30%
COc1ccccc1C(=O)NC(=O)COC(=O)c1cccc(NC(C)=O)c1 in the list: -4% | -5%
O=S(=O)(c1ccc(Cl)cc1)N1CCN(Cc2cccnc2)CC1 in the list: -19% | -4%
CCN(C[C@H]1N[C@@](CC)(C(=O)OC)[C@H]2C(=O)N(Cc3ccccc3)C(=O)[C@@H]12)C(=O)c1ccc(F)cc1 in the list: -12% | 1%

Additional records
SMILES	Vaccinia mCherry	Vaccinia Venus
O=C(NCC(c1cccnc1)N1CCc2ccccc21)c1ccc(F)cc1 (configuration not stated)	-22%	-23%
COc1ccc(C(=O)c2coc3ccc(O)c(CN4CCOCC4)c23)cc1	2%	-2%
Cc1ccccc1CNS(=O)(=O)c1c(C(=O)N2CCCC2)c(C)n(C)c1C	-14%	-6%
CCC(=O)N1CCc2cc(CNS(=O)(=O)c3ccc(C(C)C)cc3)ccc21	-11%	2%
CCCOP(=O)(OCCC)C(NC(=O)c1ccccc1)=C(Cl)Cl	-20%	-1%
COC(=O)c1ccc(NC(=O)c2ccc3c(c2)OCO3)cc1	0%	-17%
Cc1ccc(C2=NN(C(=S)Nc3ccccc3)C(c3ccco3)C2)cc1 (configuration not stated)	-12%	0%
O=C(Cc1csc(NC(=O)Nc2cccc(Cl)c2)n1)NCc1cccnc1	-28%	-29%
Cc1cccc(Nc2nc(CC(=O)O)cs2)c1	?	-4%
Cc1ccc(NC(=O)c2ccc(S(=O)(=O)NCc3cccnc3)cc2)cc1C	-8%	-1%
COc1cc(C2c3c([nH]c(=O)[nH]c3=O)Nc3ccc4ccccc4c32)cc(OC)c1OC (configuration not stated)	-13%	-11%
CCOC(=O)CC(NC(=O)C(Cc1ccc(N(CCCl)CCCl)cc1)NC(C)=O)C(=O)OCC (configuration not stated)	i	-8%
O=C(CC1OC(=O)c2ccccc21)Nc1cccc(S(=O)(=O)N2CCCCCC2)c1 (configuration not stated)	-1%	-14%
CCS(=O)(=O)c1ccc(O)c(N2C(=O)C3C4C=CC(C4)C3C2=O)c1 (configuration not stated)	i	-7%
O=C(c1c(Cl)nc2sccn12)N1CCCc2ccccc21	i	-12%
O=C(Nc1ccc(Cl)cc1)C1CCCN(C2=NS(=O)(=O)c3ccccc32)C1 (configuration not stated)	i	-11%
COc1ccc(-c2noc(CCC(=O)N3CCN(c4ccccc4Br)CC3)n2)cc1	-15%	-12%
CC12CCC(C(NC(=S)NN)C1=O)C2(C)C (configuration not stated)	i	9%
CN1CCc2c(sc3c2C(=O)NC(c2cccc(OC(=O)c4cccs4)c2)N3)C1 (configuration not stated)	i	-8%
O=C(CCNC(=O)c1ccc(Br)cc1)Nc1ccc(S(=O)(=O)Nc2ncccn2)cc1	-15%	0%
Cc1nc2ccccc2cc1C(=O)Nc1ccccc1Cl	-2%	-4%
CC(=O)O[C@@H]1/C=C/[C@](C)(O)C[C@@H](C)C/C=C/[C@H]2[C@H](O)[C@@](C)(O)[C@@H](C)[C@H]3[C@H](Cc4ccccc4)NC(=O)[C@@]312	-11%	-9%
O=C(NCC1(O)CCCCC1)C1CCC(=O)N(Cc2ccccc2F)C1 (configuration not stated)	-14%	-10%
Cc1cc(C)c2[nH]c(=O)c(CN(Cc3cccnc3)C(=S)NCCCN(C)C)cc2c1	i	-12%
COc1cc2nc(CN3CCN(S(=O)(=O)c4ccc(Cl)cc4)CC3)[nH]c(=O)c2cc1OC	-13%	-3%

Next compounds follow:
SMILES	Vaccinia mCherry	Vaccinia Venus
C[C@H](CO)N1C[C@H](C)[C@@H](CN(C)Cc2ccc(Oc3ccccc3)cc2)Oc2c(NC(=O)c3ccncc3)cccc2C1=O	i	?
CCOc1ccccc1CNC(=O)CN1C(=O)c2cccnc2Oc2ccc(Cl)cc21	-6%	-3%
O=C(C(=O)N1CCOCC1)c1cn(CCCOc2ccccc2)c2ccccc12	-14%	-9%
CN1C(=O)NC(c2ccc(O)cc2)C(C(=O)c2cccs2)C1(O)C(F)(F)F (configuration not stated)	-13%	-3%
CCOc1ccccc1NC(=O)c1ccc2nc[nH]c2c1	?	-6%
Cc1ncc(C[n+]2csc(CCOC(=O)C34CC5CC(CC(C5)C3)C4)c2C)c(N)n1	-2%	-2%
CC(Sc1nnc(COc2ccc([N+](=O)[O-])cc2)n1C)C(=O)O (configuration not stated)	i	-1%
COc1ccc(C(C)C)cc1-c1ccc2nncn2c1	i	-11%
N#Cc1ccc(COC(=O)CCc2c[nH]c3ccccc23)cc1	-2%	-17%
O=C(NCCCN1CCOCC1)C1CCN(S(=O)(=O)c2c(Cl)cccc2Cl)CC1	-17%	-16%
O=C(c1ccco1)[C@@H]1[C@@H]2C(=O)N(c3ccc(F)cc3)C(=O)[C@@H]2[C@H]2C=Cc3ccccc3N21	10%	35%[activator]
COc1cc(NS(=O)(=O)c2cccs2)cc(OC)c1	-4%	0%
COc1cccc(CN2C(=O)C3(C(C#N)=C(N)OC4=C3C(=O)CCC4)c3ccccc32)c1 (configuration not stated)	-15%	-14%
CCOC(=O)C1CCN(Cc2cccc(OC)c2)CC1	i	-11%
O=c1c2c([nH]n1-c1ccccc1)CCSC2	?	-4%
O=C(Nc1cccc(Cl)c1N1CCOCC1)c1ccc(Br)o1	i	-12%
O=C1CCC([N+](=O)[O-])C(c2cc(Br)ccc2F)N1 (configuration not stated)	i	-24%
Cn1c(=O)c2c(nc(SCC(=O)Nc3ccc(F)cc3)n2Cc2ccc(Cl)cc2)n(C)c1=O	-17%	-8%
CCc1ccc(/C=C2\Oc3cc(OC(=O)N4CCOCC4)ccc3C2=O)cc1	i	-11%
Cc1ccc(CNCc2ccccc2Cl)cc1	.	-13%
CCc1c(C)[nH]c2ccc(OC)cc2c1=S	-14%	-9%
O=C(N/N=C/CCc1ccccc1)c1ccc(CN2c3cccc4cccc(c34)S2(=O)=O)cc1	-20%	-16%
CCOc1ccc(C2CC(c3ccc(F)cc3)Nc3nc(N)nn32)cc1 (configuration not stated)	-5%	-7%
O=C(CN1C(=O)C2CCCCC2C1=O)Nc1ccccc1N1CCCC1 (configuration not stated)	-8%	-11%
O=C1NCN(c2ccccc2)C12CCN(CCCC(c1ccc(F)cc1)c1ccc(F)cc1)CC2	-26%	-12%
CC(C)CN1CCN(C(=O)CCc2nnc(Cc3c[nH]c4ccccc34)o2)[C@@H](C)C1=O	-20%	-13%
CCCCCCNc1nc(-c2ccc(OC)cc2)c(CCC(=O)O)s1	-11%	-2%
CCOC(=O)C1=NOC(CN(c2ccccc2)S(=O)(=O)c2ccc(Cl)cc2)C1 (configuration not stated)	i	-8%
CC(C)(C)n1cnc2cc(NS(=O)(=O)c3ccc(Br)cc3)ccc21	.	?

The order is random, and some 0.87% of all compounds hit somewhere here.
